# PINK1 modulator – changes PINK1 expression | AID 624263 | Potency, µM (highest dose often 76.6 µM), for the others: top-dose activation (PINK1 increase), actives largely listed as activators | PINK1 immunofluorescence, high-content cytometry, 24 h | 410,000 compounds, 0.2% hits; active = well fitted activation curve with a large enough effect; inconclusive = small, poorly fitted or top-dose-only effect; inactive = flat fitted curve, though single readings scatter; cell line not stated here;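 further: % of control where 0% means no effect; nearly all actives have a fitted effect of over 65% in size; a mitochondrial uncoupler was the plate control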
#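 Stable cell line, 250 cells/well, 12 h attachment; compounds pinned at 5 concentrations, 24 h; CCCP control. Fixed with nuclear dye, primary antibodies 12 h at 10 degrees C, secondary plus cell stain; laser-scanning cytometer read.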
# ClpP mod – qHTS Assay for Activators of ClpP; ATP-dependent Clp protease proteolytic subunit (Bacillus subtilis (strain 168)), P80244; purified B. subtilis ClpP, FRET peptide cleavage, 20 min; Potency, µM (doses to about 57.5 µM), for inactives: at the highest dose activity change, negative = active; 340,000 compounds, 1.9% hits; active = well fitted falling curve with a large enough effect; inconclusive = small, poorly fitted or top-dose-only effect; inactive = no such curve, though single readings can be large or run the other way; further: the source files actives as falling curves though it sought activators and does not explain the sign; nearly all actives have a fitted effect of over 65% in size; many hits overshoot -100%
# Target sequence (P80244 whole entry, looked up): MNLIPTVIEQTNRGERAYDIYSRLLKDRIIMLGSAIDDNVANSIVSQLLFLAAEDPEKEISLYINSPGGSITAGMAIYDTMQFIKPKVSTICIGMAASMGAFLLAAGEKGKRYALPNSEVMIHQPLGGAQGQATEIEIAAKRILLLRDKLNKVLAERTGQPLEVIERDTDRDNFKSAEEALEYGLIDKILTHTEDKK
#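 ClpP 10 microg/mL final, pH 8 Tris/KCl buffer with BSA, glycerol, Tween-20; compound pinned in; FRET-FV substrate; RT 20 min; Ex320/Em430; ΔFRET vs ADEP 5.8 microM, DMSO, no enzyme.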
# An asterisk follows results filed as active; ? = inconclusive. Potency means the concentration at half of the fitted maximal effect. The list is partial (hit frequency here may not be typical).
# Order of values: PINK1 modulator | ClpP mod
- Cc1cccc(NC(=O)N2CCN(C)c3ncccc32)c1C
→ 2.2% | 4.2%
- O=C(NCCc1ccccc1)c1ccc2c(c1)N(Cc1ccc(Cl)cc1)C(=O)CS2
→ -1.1% | -0.6%
- Cc1cc(C)n(C(C)CC(=O)Nc2ccc(C)c(N(C)C)c2)n1 (stereo not given)
→ 1.6% | -1.4%
- CCOC(=O)c1c(S(=O)(=O)N2CCCC(C(=O)Nc3cc(C)ccc3OC)C2)c(C)n(C)c1C (stereo not given)
→ 1.8% | -0.2%
- O=C(NC1CCCCC1)C1c2ccccc2OCC(=O)N1Cc1ccccc1 (stereo not given)
→ -0.2% | -1.5%
- OC(c1ccccc1)(c1ccccc1)C1CCN(CCCOc2ccccc2)CC1
→ 12% | 0.0%
- Cc1ccc(-n2ncc(C(=O)NCc3cccs3)c2C2CCN(C(=O)OC(C)(C)C)CC2)cc1C
→ -0.2% | 2.2%
- CCc1ccc(NC(=O)N2CC=C(c3c[nH]c4ccccc34)CC2)cc1
→ 0.2% | -17%
- COc1cccc(NC(=O)c2sc3nc(C)c(C(=O)Nc4ccc(Cl)cc4)c(-c4ccc(Br)cc4)c3c2N)c1
→ 1.0% | -4.9%
- COc1cccc(/C=C/c2nc(C#N)c(N3CCN(C)CC3)o2)c1
→ -0.2% | 3.9%
- COc1ccc(CCNC(=O)c2c(C)nn(-c3ccc(F)cc3)c2-n2cccc2)cc1OC
→ ? | 0.2%
- CC(C)c1nc2ccc(C(=O)NCCCN3CCN(c4ccccc4)CC3)cc2o1
→ 6.9% | -2.4%
- CCOc1ccc(N2CC(NC(=O)/C=C\c3ccc4c(c3)OCO4)CC2=O)cc1 (stereo not given)
→ -0.4% | -12%
- CCCc1cc(=O)n2[nH]c(NCc3ccccc3OC)nc2n1
→ -0.9% | -6.9%
- CCc1ccc(S(=O)(=O)c2nnn3c2nc(N2CCOCC2)c2sccc23)cc1
→ 1.7% | -3.7%
- Cc1ccc(CNC(=O)C2CCN(S(=O)(=O)c3ccc4c(c3)CCCN4C(=O)C3CCC3)CC2)cc1
→ -1.7% | 0.6%
- O=S(=O)(c1ccc(Br)cc1)N1CCN(c2nc(-c3ccccc3)nc3ccccc23)CC1
→ 0.1% | -14%
- CCN(CC)S(=O)(=O)c1cc(-c2nnc(Nc3ccc(OC)c(C(N)=O)c3)c3ccccc23)ccc1C
→ -1.4% | -13%
- FC(F)(F)c1ccc(-c2noc(-c3ccccc3Br)n2)cc1
→ 0.6% | 0.7%
- COc1ccc(S(=O)(=O)N(CC(=O)Nc2ccccc2Br)Cc2ccccc2)cc1
→ 0.8% | 1.5%
- Cc1nc(SCC(=O)Nc2ccccc2Cl)cc(-c2ccccc2)n1
→ 0.0% | -1.5%
- CN(C(=O)c1ccc2c(c1)N(Cc1cccc(Cl)c1)C(=O)c1ccccc1S2=O)C1CCCCC1 (stereo not given)
→ 0.5% | -2.0%
- Cc1ccc(C)c(NC(=O)CCN2C(=O)c3ccccc3Sc3ncccc32)c1
→ 0.1% | -0.6%
- Cc1cc(Br)cc2c(C(=O)OCC(=O)c3ccccc3)cc(-c3ccccc3)nc12
→ 0.3% | 0.0%
- O=C1C2=C(Nc3ccccc3SC2c2c(F)cccc2Cl)c2ccccc21 (stereo not given)
→ -0.8% | 0.7%
- O=C(Cn1ccc2cc(S(=O)(=O)N3CCCCCC3)ccc21)NCCc1ccc(Cl)cc1
→ ? | -7.2%
- CCCOc1ccc(CN2C(=O)C(=O)c3cccc(C)c32)cc1
→ 5.9% | 0.6%
- Cc1ccccc1NC(=O)Cn1c(=O)n(CC2CCC(C(=O)NCCc3ccccc3)CC2)c(=O)c2ccccc21 (stereo not given)
→ 5.3% | -0.4%
- COc1cc2nc(Cl)nc(NC3CCN(C)CC3)c2cc1OC
→ 0.4% | 2.6%
- COc1cccc(CNC(=O)Cn2cc3c(n2)-c2c(oc(C(=O)N4CCCC4)c2C)CC3)c1OC
→ 0.6% | 0.0%

# Order of values: PINK1 modulator | ClpP mod
- CN1CC(=O)Nc2cc(C(=O)O)ccc21
→ -0.9% | -8.1%
- CCOc1ccc(NC(=O)c2ccc3nc(C(C)C)oc3c2)cc1
→ 7.5% | -0.2%
- CC(C)C[C@H]1CN(CCCC[C@H]2CNC(=O)C(=O)N2CCc2ccccc2)C(=O)C(=O)N1CCc1ccccc1
→ -0.5% | 0.6%
- [O-][N+](=NC1C=Cc2ccccc21)C1C=Cc2ccccc21 (stereo not given)
→ -0.8% | -0.7%
- COc1ccccc1N1CCN(C(=O)c2cc3c(=O)oc4ccc(C)cc4c3s2)CC1
→ 0.5% | -2.1%
- COc1cccc(CNC(=O)CSc2ncc(S(=O)(=O)c3ccc(Br)cc3)c(=O)[nH]2)c1
→ 1.3% | -3.2%
- CCc1nn(CC(=O)Nc2c(C)cccc2C)c(=O)c2cc3sccc3n12
→ -1.3% | -9.6%
- CC(C)c1ccc(NC(=O)CSC2=Nc3ccccc3C3=NC(CCC(=O)NCc4ccco4)C(=O)N23)cc1 (stereo not given)
→ 0.3% | 0.4%
- CCOC(=O)CSc1nc2ccc(NC(=O)c3ccc(C)cc3)cc2s1
→ -1.6% | 3.8%
- Clc1cccc(Cc2c(-c3cccc(Cl)c3)nc3c4ccccc4ccn23)c1
→ 0.9% | -5.9%
- COc1ccc(NC(=O)Cn2c(=O)c3ccccc3n3nncc23)cc1Cl
→ 1.3% | -0.5%
- COc1cc(-c2nc3sccn3c2Nc2cccc(C)c2)ccc1O
→ 2.5% | -1.2%
- CC(=O)NCCNC(=O)CCCc1nnc2n(CC(C)C)c(=O)c3sccc3n12
→ -1.3% | -41%
- CCOc1ccc(OCC)c(NC(=O)c2cnn(-c3ccc(F)cc3)c2-n2cccc2)c1
→ -0.7% | ?
- COc1ccc(C(=O)NCCn2cc(SCC(=O)Nc3ccccc3)c3ccccc32)cc1OC
→ 0.5% | -1.2%
- Cc1ccc(CNC(=O)c2c[nH]n3c(=O)c(Cc4ccc(Cl)cc4)c(C)nc23)cc1
→ 10% | 4.1%
- COc1ccc(Br)cc1CNC(=O)c1cnc2sc(N3CCCC3)nn2c1=O
→ -0.4% | ?
- CC(C)C(=O)Nc1nnc2n1CCS2
→ -2.8% | -2.0%
- CCOc1ccc2c(c1)c(=O)c(S(=O)(=O)c1ccccc1)cn2CC(=O)Nc1ccccc1OC
→ 0.0% | -26%
- Cc1cccc(-n2c(SCC(=O)c3ccccc3)nnc2-c2ccc(Br)cc2)c1
→ 1.3% | 0.0%
- COc1cc(-c2noc(-c3ccc(NCc4ccco4)c([N+](=O)[O-])c3)n2)cc(OC)c1OC
→ -0.1% | -2.0%
- Cc1ccccc1OCCCCn1c(-c2ccc(Cl)cc2)nc2ccccc2c1=O
→ 3.3% | 3.3%
- COc1ccc(S(=O)(=O)NCCc2csc3nc(-c4ccc(Cl)cc4)nn23)cc1C
→ 4.3% | 3.6%
- COCCn1c(=O)[nH]c2cc(C(=O)Nc3ccc(OC)cc3)ccc2c1=O
→ -0.5% | -9.2%
- COc1ccccc1N(CC(=O)Nc1ccc(C)c(Cl)c1)S(=O)(=O)c1ccc(C)cc1
→ 1.3% | -0.8%
- COc1ccccc1NC(=O)Cn1c(=O)n(-c2ccc(C)cc2)c(=O)c2c1cnn2C
→ 0.1% | -0.9%
- Cc1cccc(Cn2cccc2CNS(=O)(=O)c2ccc(C)c(C)c2)c1
→ ? | 0.9%
- CCc1ccc(NC(=O)CSc2nc(=O)n(Cc3cccnc3)c3c2CCC3)cc1
→ -1.3% | -0.7%
- CC(C)CCNC(=O)c1ccc2c(c1)N(Cc1ccccc1F)C(=O)c1ccccc1S2(=O)=O
→ -0.6% | 0.7%
- Cc1cccc(-c2nnc(SCc3cc(=O)c4cccc(Cl)c4[nH]3)n2C)c1
→ 2.0% | 0.2%

# Order of values: PINK1 modulator | ClpP mod
- COC(=O)c1cc2sc(Cl)cc2n1Cc1nc(-c2ccccc2C)oc1C
→ 2.8% | -1.7%
- O=C1CCCCCC[C@@H](O)[C@H](O)C[C@H](c2ccccc2)O1
→ 1.9% | 2.3%
- COc1cccc(-c2nc(CS(=O)(=O)CC(=O)Nc3c(C)cc(C)cc3C)c(C)o2)c1
→ 5.9% | 0.9%
- Cc1ccc(NC(=O)CCn2cnc3onc(-c4ccc(F)cc4)c3c2=O)c(Br)c1
→ 3.4% | -0.1%
- CCc1ccccc1NC(=O)N1CCN(c2cc(-c3noc(C)n3)ccc2C)CC1
→ 1.9% | 0.7%
- COc1ccc(NC(=O)CCCc2nc(-c3ccco3)no2)c(OC)c1
→ -1.4% | -1.1%
- CC1=C(C(=O)Nc2ccccc2)C(c2ccc(O)cc2)n2nc(SCc3ccccc3)nc2N1 (stereo not given)
→ 15% | -6.9%
- Cc1cccc(-c2nc(CSc3nncn4c3cc3sccc34)c(C)o2)c1
→ 1.8% | 0.5%
- N#Cc1ccccc1Cn1c(=O)n(CCCC(=O)NCc2ccccc2Cl)c(=O)c2ccccc21
→ -0.1% | -3.1%
- Cc1ccc(SCc2nc(-c3ccc(C(=O)NCCc4ccc(Cl)cc4)cc3)oc2C)cc1
→ 0.3% | -0.8%
- Cc1cc2ccccc2n1CCNC(=O)c1ccccc1F
→ 4.2% | -1.5%
- COC(=O)c1ccc(Cn2c(SCc3ccc(F)cc3)nc3ccncc32)cc1
→ -1.4% | -2.7%
- Cn1cc(S(=O)(=O)c2ccc(Cl)cc2)c(=O)c2cc(F)c(N3CCCCCC3)cc21
→ 1.4% | -17%
- Cc1cccc(-n2c(=O)c3c4c(sc3n3cnnc23)CCCC4)c1
→ -0.4% | -8.1%
- CN1CCN(c2oc(/C=C/c3ccc(F)cc3)nc2C#N)CC1
→ -0.5% | 4.2%
- Cc1c(C(=O)NCc2ccccc2Br)oc2c1-c1[nH]ncc1CC2
→ -0.2% | ?
- Cc1ccc(-n2nnc(-c3nc(-c4cccs4)no3)c2N)cc1C
→ 0.2% | -0.2%
- CCCOC(=O)c1ccc(Cn2nnc3sc4c(c3c2=O)CCC(C)C4)cc1 (stereo not given)
→ -0.1% | -1.0%
- CC1CCN(S(=O)(=O)c2ccc3c(c2)N(CC(=O)NC(C)(C)C)C(=O)CS3)CC1
→ 4.4% | -3.8%
- COc1ccc(N2CCN(S(=O)(=O)c3cc(Br)cc4c3N(C(=O)C3CC3)CC4)CC2)cc1
→ 0.2% | -0.8%
- COc1ccc(CCNC(=O)c2cc(=O)c3cc(C)cc(C)c3o2)cc1OC
→ 0.5% | 1.6%
- Cc1ccccc1-c1noc(-c2cc3ccccc3oc2=O)n1
→ 1.8% | 4.4%
- COc1ccc2c(Sc3ccc(C)cc3)c(C(=O)NC(C)C)[nH]c2c1
→ 3.4% | -14%
- Cc1cc(C)c(Cn2c(C3CC(=O)N(c4ccc(F)cc4)C3)nc3ccccc32)c(C)c1 (stereo not given)
→ 7.2% | 0.0%
- CCOc1ccc(-c2cn(-c3ccc(C)cc3)c(SCC(=O)Nc3ccc(C)cc3)n2)cc1
→ 0.0% | -3.2%
- COc1ccccc1NC(=O)c1ncn(-c2ccccc2)n1
→ -0.5% | -16%
- CCOc1ccc(NC(=O)CC2C(=O)N(c3cccc(OC)c3)C(=O)N2C2CCCCC2)cc1 (stereo not given)
→ 3.0% | -0.5%
- O=C(c1cccc(Cl)c1)N1c2ncnn2C2(CCCCC2)[C@@H]2CCCC[C@@H]21
→ -0.2% | -0.2%
- O=C1N(Cc2ccccc2Cl)c2ccccc2C1(O)c1c[nH]c2ccccc12 (stereo not given)
→ 0.5% | 0.5%
- CCc1ccc(CNC(=O)CSc2cc(=O)n(CC)c3ccccc23)cc1
→ 19% | -13%

# Order of values: PINK1 modulator | ClpP mod
- Cc1ccc(/C=C/c2nc3ccccc3n2S(=O)(=O)c2cccc(Cl)c2)cc1
→ -0.9% | 10µM*
- CCOc1ccc(-c2cc3nc(C4CCN(C(=O)OC(C)(C)C)CC4)c(C(=O)Nc4c(C)cccc4C)cn3n2)cc1
→ 6.5% | 4.3%
- CCC(C(=O)Nc1ccc(C(=O)OC)cc1)n1c(=O)c(-c2ccccc2NC(C)=O)nc2ccccc21 (stereo not given)
→ -0.1% | -14%
- Cc1ccc(COc2ccc3oc(-c4ccccc4)c(C(=O)O)c3c2)cc1
→ -0.2% | 3.8%
- CCOc1ccc(N(CC)S(=O)(=O)N2CCCC(C(=O)Nc3ccc(OC)c(Cl)c3)C2)cc1 (stereo not given)
→ -0.4% | 1.3%
- CCOC(=O)[C@]12CCCC=C1N(Cc1ccco1)C(=O)[C@H](CC(=O)NCCCN1CCCC1=O)C2
→ 0.2% | -1.7%
- CC(=O)N1c2ccc(S(=O)(=O)NCc3ccc(Cl)cc3)cc2CC1C (stereo not given)
→ 0.6% | -1.9%
- Cc1nc(N2CCOCC2)c2c(C(=O)N3CCN(c4ccc(Cl)cc4)CC3)c(C)oc2n1
→ -2.2% | 0.3%

# Random excerpt: 4 records from the list.
# Order of values: PINK1 modulator | ClpP mod
- Cc1ccc(COc2ccc3oc(-c4ccccc4)c(C(=O)O)c3c2)cc1
→ -0.2% | 3.8%
- CCOc1ccc(N(CC)S(=O)(=O)N2CCCC(C(=O)Nc3ccc(OC)c(Cl)c3)C2)cc1 (stereo not given)
→ -0.4% | 1.3%
- CCOC(=O)[C@]12CCCC=C1N(Cc1ccco1)C(=O)[C@H](CC(=O)NCCCN1CCCC1=O)C2
→ 0.2% | -1.7%
- CC(=O)N1c2ccc(S(=O)(=O)NCc3ccc(Cl)cc3)cc2CC1C (stereo not given)
→ 0.6% | -1.9%
